Source: PubChem
GLA inh pH 4.5 – alpha-galactosidase A (human) inhibition, pH 4.5 | activity change, negative = inhibition, % at 105 µM | purified enzyme, 4-MU-alpha-Gal fluorescence, pH 4.5 | P06280 | 230,000 tested, under 10 active; inconclusive = small, poorly fitted or top-dose-only inhibition, or a rising curve; inactive = flat fitted curve, though single readings scatter; no compound was filed as active;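 further: 0% = full activity with enzyme and -100% = basal without enzyme; dose as in the result columns while the protocol names 77 µM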
Target sequence (P06280 whole entry, looked up): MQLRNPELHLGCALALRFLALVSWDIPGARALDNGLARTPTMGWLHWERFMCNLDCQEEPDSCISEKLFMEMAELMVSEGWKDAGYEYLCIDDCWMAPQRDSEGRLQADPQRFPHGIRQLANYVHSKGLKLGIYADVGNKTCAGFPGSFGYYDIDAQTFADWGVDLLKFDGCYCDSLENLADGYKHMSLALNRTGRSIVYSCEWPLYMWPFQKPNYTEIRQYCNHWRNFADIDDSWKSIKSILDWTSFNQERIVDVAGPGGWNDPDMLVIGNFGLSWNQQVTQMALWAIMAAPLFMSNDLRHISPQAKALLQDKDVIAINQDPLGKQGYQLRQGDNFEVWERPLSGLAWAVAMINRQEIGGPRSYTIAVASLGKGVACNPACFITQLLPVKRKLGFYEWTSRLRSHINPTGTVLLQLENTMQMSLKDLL
The depositor's hits bear a star; ? = inconclusive; & = joins results of further samples.

A first look:
SMILES	GLA inh pH 4.5
Cc1nc(N2CCOCC2)c2nc(-c3ccccc3)n(CC3CCN(C)CC3)c2n1	-6
COC(=O)C1C(O)CC[C@H]2CN3CCc4c([nH]c5ccccc45)C3C[C@H]12 (some centres undefined)	3

The listing (from the top)
SMILES	GLA inh pH 4.5
Cc1nc(N2CCOCC2)c2nc(-c3ccccc3)n(CC3CCN(C)CC3)c2n1	-6
COC(=O)C1C(O)CC[C@H]2CN3CCc4c([nH]c5ccccc45)C3C[C@H]12 (some centres undefined)	3
CN(C)c1ccc(-c2cncnc2NCc2cccs2)cc1	-1
COC(=O)N1[C@H](C)C=C[C@]1(Cc1ccccc1)C(=O)NCc1ccc(C)o1	-3
CC1=C(C(=O)O)N2C(=O)C(NC(=O)C(N)c3ccccc3)C2SC1 (centres undefined)	5
COc1ccc2c(c1)O[C@@H](c1ccc3c(c1)OCO3)[C@H](OC(=O)NS(=O)(=O)c1ccc(F)cc1)C2=O	-6
COC(=O)[C@@]1(Cc2ccc(OC)cc2)[C@H]2c3cc(C(=O)N4CCCC4)n(Cc4ccc(C)c(F)c4F)c3C[C@H]2CN1C(=O)c1ccccc1	-7
C[C@@]12C(=O)OC(=O)[C@@]1(C)C1CCC2O1	-2
CCN(CC)CCn1c(-c2ccccc2)nc2c(NC3CCCCC3)nc(C)nc21	-9
COC(=O)[C@@]1(Cc2ccc(F)cc2)[C@H]2c3cc(C(=O)N(C)C)n(CCF)c3C[C@H]2CN1C(=O)c1ccccc1	-6
COC(=O)C1=C(C(=O)OC)[C@@H]2N(Cc3ccccc3)c3ccccc3[C@@]23C[C@@H](C(=O)OC)N(S(=O)(=O)c2ccc(C(F)(F)F)cc2)C3=N1	-9
CNCCCCc1cnc(C)c2[nH]c3ccccc3c12	5
O=c1c(O)c(-c2ccccc2)oc2ccc3occc3c12	-2
CC(=O)N1C2(C=CC1(C)C(=O)NCc1ccc(C)o1)CCCCC2 (centres undefined)	0
CC(C)C[C@H](NC(=O)[C@@H](O)[C@H](N)Cc1ccccc1)C(=O)O	-1&-4
CC(C)CCCC(C)C1CCC2C3CC=C4CC(=O)CC[C@@]4(C)C3CC[C@@]12C (some centres undefined)	-1
CC(C)[C@@H](CC(=O)N[C@@H]1CCNC[C@H]1C(=O)N[C@H](CC(=O)N[C@@H](CCC(=O)O)CC(=O)O)Cc1ccccc1)NC(=O)C[C@H](Cc1c[nH]c2ccccc12)NC(=O)[C@@H]1CNCC[C@H]1N	0
CCc1ccc2c(-c3cccc(Cl)c3)nc(=O)n(CC)c2n1	2
C[C@]12O[C@H]1[C@@H](O)C(Br)=C(CO)[C@H]2O	3
Cc1nn(C)c2nc(NNC(=O)Nc3cc(Cl)nc(Cl)c3)cc(C(C)C)c12	-2
C[C@H](O)C(=O)Nc1c(I)c(C(=O)NC(CO)CO)c(I)c(C(=O)NC(CO)CO)c1I	3
OC[C@H]1O[C@@H](O[C@@H]2[C@@H](CO)O[C@](O)(CO)[C@H]2O)[C@H](O)[C@@H](O)[C@H]1O	4
COC(=O)C1(C(=O)OC)CC2=CCC3C(=O)N(c4ccccc4)C(=O)C3C2Cc2ccccc2[C@@H]1C[N+](=O)[O-] (some centres undefined)	-6
CCOC(=O)CNC(=O)O[C@@H]1Cc2cc(OC)ccc2O[C@H]1c1cccc(OC)c1	-14
COC(=O)[C@H](COC(C)(C)C)NC(=O)O[C@H]1C(=O)c2cc(OC)ccc2O[C@@H]1c1ccc(OC)c(Br)c1	-2
COc1ccc2c(c1)c(CC(=O)O)c(C)n2Cc1ccc(Cl)cc1	-3
Cc1csc(-c2coc3cc(O[C@@H]4O[C@H](CO)[C@@H](O)[C@@H](O)[C@H]4O)ccc3c2=O)n1	-2
COc1cccc(/C=C/C(=O)O)c1C(C)C	-8
COC(=O)CCC(=O)OC1(C)C(=O)C2=CN(Cc3ccco3)C(c3ccc(OC)cc3)=CC2=C(Br)C1=O (centres undefined)	5
CCCCOC(=O)NS(=O)(=O)c1sc(CC(C)C)cc1-c1ccc(Cn2c(CC)nc3c(C)cc(C)nc32)cc1	-17
N[C@@H](C(=O)O)c1ccc(P(=O)(O)O)cc1	1
O=C(Nc1ccc(Cl)cc1)OCCN1CCN(Cc2ccccc2)CCC1=O	-4
CCCn1c(-c2ccc(F)cc2)nc2c(N3CCCN(Cc4ccccc4)CC3)nc(C)nc21	-9
O=C(Nc1cc(C(=O)Nc2ccc(S(=O)(=O)O)cc2S(=O)(=O)O)cc(C(=O)Nc2ccc(S(=O)(=O)O)cc2S(=O)(=O)O)c1)Nc1cc(C(=O)Nc2ccc(S(=O)(=O)O)cc2S(=O)(=O)O)cc(C(=O)Nc2ccc(S(=O)(=O)O)cc2S(=O)(=O)O)c1	10&-1
CC[C@H](C(=O)[C@H](C)[C@H](O)[C@H](C)CCc1ccc(C)c(O)c1C(=O)O)[C@H]1O[C@](CC)([C@@H]2CC[C@@](O)(CC)[C@H](C)O2)C[C@H]1C	-2
C=CCN1c2ccccc2[C@]23C[C@@H](C(=O)OC)N(C(=O)COCc4ccccc4)C2=NC(C(=O)OC)=C(C(=O)OC)[C@H]13	0
C=C(C(C)=O)C(O)c1ccc([N+](=O)[O-])cc1 (centres undefined)	0
COc1ccc2cc1Oc1ccc(cc1)CC1c3c(cc4c(c3Oc3cc5c(cc3OC)CCN(C)C5C2)OCO4)CCN1C (centres undefined)	-20
COc1ccc2[nH]cc(CCNc3ncnc4ccc(-c5ccc(C(=O)N(C)C)cc5)cc34)c2c1	-5
CCCCC[C@H](O)/C=C/[C@@H]1[C@@H](CC(=O)CCCCC(=O)O)[C@@H](O)C[C@H]1O	-12
N[C@@H](CS(=O)O)C(=O)O	-7&-2
Cc1c(-c2ccccc2)oc2cc(O)ccc2c1=O	4
C=C(C)C1CC[C@]2(CO)CC[C@@]3(C)[C@H](CCC4[C@@]5(C)CCC(O)C(C)(C)C5CC[C@@]43C)C12 (some centres undefined)	16
Brc1ccc(C2=N[C@@H](Cc3ccccc3)CO2)cc1	-6
COc1cccc([C@@H]2Oc3ccc(OC)cc3C[C@H]2OC(=O)NS(=O)(=O)c2ccc(C)cc2)c1	-1
CCCCC[C@H](O)/C=C/C=C/C/C=C\CCCC(=O)O	-5
CCCCCCCC1=CC2=C(Cl)C(=O)C(C)(OC(C)=O)C(=O)C2=CN1C (centres undefined)	3
O=c1[nH]c(=O)n([C@@H]2C[C@H](O)[C@H](CO)O2)cc1I	-6
COC(=O)C1=C(C(=O)OC)[C@@H]2N(C)c3ccc(OC)cc3[C@@]23C[C@@H](C(=O)OC)N(C(C)=O)C3=N1	11
COC(=O)C/C=C/[C@@H](C)[C@H](NC(=O)OCC(Cl)(Cl)Cl)c1cccc(OC)c1	-1

Some of the entries so far, with each value named:
> CCN(CC)CCn1c(-c2ccccc2)nc2c(NC3CCCCC3)nc(C)nc21
  GLA inh pH 4.5: -9

> COC(=O)[C@@]1(Cc2ccc(F)cc2)[C@H]2c3cc(C(=O)N(C)C)n(CCF)c3C[C@H]2CN1C(=O)c1ccccc1
  GLA inh pH 4.5: -6

> COC(=O)C1=C(C(=O)OC)[C@@H]2N(Cc3ccccc3)c3ccccc3[C@@]23C[C@@H](C(=O)OC)N(S(=O)(=O)c2ccc(C(F)(F)F)cc2)C3=N1
  GLA inh pH 4.5: -9

Next part
SMILES	GLA inh pH 4.5
COC(=O)[C@@]1(Cc2ccc(F)cc2)[C@H]2c3cc(C(=O)N(C)C)n(Cc4ccc(O)c(OC)c4)c3C[C@H]2CN1C(=O)c1ccccc1	-3
CCCCCCCCCCCCCCSCC(=O)O	-1
CCCn1c(-c2ccc(F)cc2)nc2c(N3CCN(CCC(=O)OCC)CC3)nc(C)nc21	3
COc1cc2c(cc1OC)[C@H](C)N(CC1C(=O)O[C@@H]3C[C@@]4(C)CCC[C@H](C)[C@@]45OC5[C@H]13)CC2 (some centres undefined)	-5
COc1cccc(-c2nc(NCc3cnc(C)cn3)c3ccccc3n2)c1	-2
COc1ccc(-c2nc3c(c4c2C[C@H](c2ccccc2)OC4)CN(S(=O)(=O)c2ccc4c(c2)OCCN4C)CC3)c(C)c1	5
CCCc1c(OCC(O)COc2ccc3c(=O)cc(C(=O)O)oc3c2CCC)ccc(C(C)=O)c1O (centres undefined)	-10
Cc1[nH]c(=O)c(C#N)cc1-c1ccc2nccn2c1	-5
Cc1c2c(nc3ccccc13)-c1cccc(=O)n1C2	?
COC(=O)[C@@]1(Cc2ccc(OC)cc2)[C@H]2c3cc(C(=O)N(C)C)n(Cc4cccc5ccccc45)c3C[C@H]2CN1C(=O)c1ccccc1	-2
CC(=O)N1CC[C@@H]2CC(=O)CC[C@@H]21	-17
OB(O)c1ccc(B(O)O)cc1	-3
CCCn1c(C)nc2c(N3CCOCC3)nc(C)nc21	1
O=P(O)(O)OC1[C@H](O)[C@H](OP(=O)(O)O)C(OP(=O)(O)O)[C@H](OP(=O)(O)O)[C@H]1O (some centres undefined)	-2
CCCCC/C=C\C[C@@H](O)/C=C/C=C\C/C=C\CCCC(=O)O	-5
COc1cc(N)c(Cl)cc1C(=O)OCCN1CCCCC1	-8
CC(C)CCC[C@@H](C)[C@H]1CC[C@H]2[C@@H]3CC=C4C[C@@H](O)CC[C@]4(C)[C@H]3CC[C@]12C	-2
Cc1nc(NC2CCCCC2)c2nc(-c3ccccc3)n(CCCN(C)C)c2n1	-15
CC1OC(OC2CCC3(C)C(CCC4C3CC(O)C3(C)C(C5=CC(=O)OC5)CCC43O)C2)CC(O)C1OC1CC(O)C(OC2CC(O)C(OC3OC(CO)C(O)C(O)C3O)C(C)O2)C(C)O1 (centres undefined)	-4
CCC(=O)OC1(C)C(=O)C=C2C=C(/C=C/COC)OC=C2C1=O (centres undefined)	1

Random excerpt: 7 entries already listed.
SMILES	GLA inh pH 4.5
OB(O)c1ccc(B(O)O)cc1	-3
CC(=O)N1CC[C@@H]2CC(=O)CC[C@@H]21	-17
CC1OC(OC2CCC3(C)C(CCC4C3CC(O)C3(C)C(C5=CC(=O)OC5)CCC43O)C2)CC(O)C1OC1CC(O)C(OC2CC(O)C(OC3OC(CO)C(O)C(O)C3O)C(C)O2)C(C)O1 (centres undefined)	-4
O=P(O)(O)OC1[C@H](O)[C@H](OP(=O)(O)O)C(OP(=O)(O)O)[C@H](OP(=O)(O)O)[C@H]1O (some centres undefined)	-2
COc1cc(N)c(Cl)cc1C(=O)OCCN1CCCCC1	-8
Cc1nc(NC2CCCCC2)c2nc(-c3ccccc3)n(CCCN(C)C)c2n1	-15
CC(C)CCC[C@@H](C)[C@H]1CC[C@H]2[C@@H]3CC=C4C[C@@H](O)CC[C@]4(C)[C@H]3CC[C@]12C	-2

Carrying on.
SMILES	GLA inh pH 4.5
COc1ccc2c(c1)O[C@@H](c1ccc3c(c1)OCO3)[C@H](OC(=O)NS(=O)(=O)c1ccc(C)cc1)C2=O	0
CO[C@]1(C2=NCCN2)COc2ccccc2O1	-1
CC#CCOC(=O)c1c(C)nc2sc3c(c2c1N)CC[C@@H](O)C3	4
COc1ccc2c(c1)C(=O)[C@@H](OC(=O)NS(=O)(=O)c1ccc(F)cc1)[C@H](c1ccc(OC)c(Br)c1)O2	-5
NCCC(O)C(=O)NC1C[C@@H](N)[C@H](O[C@@H]2OC(CN)C(O)C(O)C2O)C(O)[C@H]1O[C@H]1OC(CO)C(O)C(N)C1O (some centres undefined)	6
CCCCc1nc2c(c3c1C[C@H](C)OC3)CN(S(=O)(=O)CCCC)CC2	-9
CCN(CC)CCCC(C)n1c(-c2ccccc2)nc2c(NCc3ccccc3)nc(C)nc21 (centres undefined)	-13
CC1(C)S[C@@H]2[C@H](NC(=O)C(N)c3ccccc3)C(=O)N2[C@H]1C(=O)O (some centres undefined)	2
COC(=O)CCCC[C@@H]1SC[C@@H]2NC(=O)N[C@@H]21	-3
COc1ccc(C2CC(=O)Oc3ccc(O)cc32)cc1 (centres undefined)	-7
COC(=O)C1(C)C=CC2(CCCCC2)N1C(C)=O (centres undefined)	-9
Cc1cnc(CNc2ncncc2-c2ccccc2CN(C)C)cn1	-1
COCC1=Cc2cc3c(cc2C(C(C(=O)OC)C(=O)OC)N1C(=O)OC)OCO3 (centres undefined)	2&-5
COC(=O)CC1C(C)(C)C(=O)C2CC3C4=CC(=O)OC(c5ccoc5)[C@]4(C)CCC3[C@@]1(C)C2=O (some centres undefined)	-3
O=c1[nH]c2cc(Cl)c(Cl)cc2[nH]c1=O	-7&3
C=C[C@](C)(O)CCC1C(=C)CCC2[C@@](C)(CO)CCC[C@@]12C (some centres undefined)	-2
CS(=O)(=O)Nc1cccc(-c2nc(Nc3ccc(F)cc3)c3ccccc3n2)c1	4
NCCC[C@@H](CC(=O)N[C@@H]1CCNC[C@H]1C(=O)N[C@H](CC(=O)N[C@@H](CCC(=O)O)CC(=O)O)Cc1c[nH]c2ccccc12)NC(=O)C[C@H](Cc1ccccc1)NC(=O)[C@@H]1CNCC[C@H]1N	-4
COc1cccc(-c2nc(NCCc3c[nH]c4ccc(OC)cc34)c3ccccc3n2)c1	-2
CCC1=C2CC[C@H]3C(=O)NC(=O)[C@H]3[C@H]2[C@@]2(C)C(=NCCc3c[nH]c4ccccc34)OC(=O)N2C1=O	-2
CCCCCCCCc1ccc(-c2ccc(C(=O)O)cc2)cc1	-2
O=C(O)c1ccc(-c2ccc(-c3ccccc3)cc2)o1	-3
Cc1ccccc1C1CC(=O)Oc2cc(C)c(Cl)c(C)c21 (centres undefined)	-9
CCCCCCCCN[C@@H](C)[C@H](O)c1ccc(SC(C)C)cc1	-12
COC(=O)C1OC(=O)C2OC23[C@]2(C)C(OC(C)=O)CC4C(C)(C)C(=O)CC[C@]4(C)C2CC[C@@]13C (some centres undefined)	-3
O=C1CC2(CCCC2)CC(=O)N1CCNC[C@H]1COc2ccccc2O1	-6
C1CCC(N=C(NC23CC4CC(CC(C4)C2)C3)N2CCOCC2)CC1	-3&-12
CC(C)c1ccc2c([Si](C)(C)C)c3c(nc2c1)-c1cccc(=O)n1C3	1
CC(=O)N[C@@H](Cc1c[nH]c2ccccc12)C(=O)O	8
CC(C)C[C@@H](CC(=O)N[C@@H](CCC(=O)O)CC(=O)O)NC(=O)[C@@H]1CNCC[C@H]1NC(=O)C[C@@H](NC(=O)C[C@H](Cc1c[nH]c2ccccc12)NC(=O)[C@@H]1CNCC[C@H]1N)C(C)C	-6
CC(=O)OC1CC[C@@]2(C)C3CC(=O)[C@]4(C)C(C(C)=O)=CCC4C3CC[C@H]2C1 (some centres undefined)	-7

This is a subset (hit frequency here may not be typical).
